# D2 agonist = human D2 receptor agonism in beta-arrestin assay | 0.084% of 360,000 active | activation, % (concentration not given with the values) | DiscoveRx PathHunter D2 beta-arrestin, luminescence, 90 min; 100% = 57 uM dopamine signal | AID 624465 | P14416; in the data active = activation above about 40%; inconclusive = about 15% to 40%; inactive = below about 15%; note: compound concentration not given in the record; the text of the record calls up to 30% inactive
# Target sequence (P14416 whole entry, looked up): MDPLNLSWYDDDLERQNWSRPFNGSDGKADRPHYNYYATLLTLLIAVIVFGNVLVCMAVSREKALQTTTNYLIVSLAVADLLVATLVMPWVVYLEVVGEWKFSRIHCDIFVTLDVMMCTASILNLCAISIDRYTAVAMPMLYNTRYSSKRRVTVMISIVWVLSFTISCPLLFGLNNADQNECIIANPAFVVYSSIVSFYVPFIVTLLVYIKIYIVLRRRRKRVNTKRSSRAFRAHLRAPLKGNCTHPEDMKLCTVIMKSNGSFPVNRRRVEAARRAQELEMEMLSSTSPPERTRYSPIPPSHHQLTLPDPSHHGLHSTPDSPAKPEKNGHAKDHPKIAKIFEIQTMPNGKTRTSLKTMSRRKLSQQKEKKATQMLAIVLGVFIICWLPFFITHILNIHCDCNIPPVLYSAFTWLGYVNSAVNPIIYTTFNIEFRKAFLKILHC
#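 DiscoveRx PathHunter D2 beta-arrestin cells (2,100/well) attached overnight, then compound-stimulated 90 min at 37 C in HBSS/10 mM HEPES/0.1% Tween-20 buffer; beta-galactosidase complementation read by luminescence after 1 h at ambient temperature. Dopamine 57 uM final (EC100) as control.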
# D2 potentiator = potentiates the human D2 dopamine receptor allosterically | potentiation, % (no concentration beside the values) | 0.23% of 360,000 active | AID 624464 | DiscoveRx D2 beta-arrestin cells, luminescence, 90 min; 100% = 57 uM dopamine signal; active = potentiation of 50% or more; inconclusive = 30% to 50%; inactive = 30% or less;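 note: compound concentration not given in the record; tested on top of an EC20 dose of dopamine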
#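 PathHunter beta-arrestin assay in DiscoveRx D2 cells. Compounds were added with an EC20 of dopamine (50 nM final) for 90 min at 37 deg C. Luminescence was read 1 h after detection reagent, with 57 uM dopamine as the EC100 control.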
# gsp antagonist = antagonists of gsp mutant (McCune-Albright syndrome). gsp-mutant cells, cAMP HTRF, 30 min; control for the full effect not named in the record. Potency, µM (top dose mostly 76.9 µM), inactives show at the top dose activity change, negative = inhibition, usual class: inhibitors. 0.4% of 340,000 active. AID 624288; active = falling curve of any shape with a large fitted effect; inconclusive = falling curve, mostly with a smaller effect; inactive = flat or rising curve; cell line not stated here;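 note: intracellular cAMP measured with PDE inhibitor Ro 20-1724 present during compound exposure; potency is the fitted concentration of half-maximal effect; % is set by controls: 0 for no effect and ±100 for the full control effect; nearly all actives have a fitted effect of over 65% in size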
#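 Cells in G418 medium, seeded 16-24 h, 37C; buffer exchange to DPBS + 1 mM CaCl2, 0.5 mM MgCl2, 0.05% BSA; cpds in DMSO + […] (300 uM stock), 30 min 37C; HTRF cAMP detection.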
# CtBP-E1A blk = CtBP/E1A binding inhibition; AlphaScreen GST-E1A/His-CtBP binding, 1536-well; active compounds read low; control for the full effect not named in the record; 0.49% of 340,000 active; activity change, % (concentration not given with the values); in the data active means activity change below about -65%; inconclusive means about -30% to -65%; inactive means above about -30%; note: % is set by controls: 0 for no effect and ±100 for the full control effect
#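 Protein mix (5X: 125 nM each GST-E1A, His-CtBP) was incubated with pinned compound 2 h at 37 deg C in dark, in 50 mM Tris pH 8.0 buffer with 300 mM NaCl. Glutathione donor and nickel acceptor beads followed; AlphaScreen signal read after 1 h.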
# Six1-Eya2 blk = inhibitors of human Six1/Eya2 interaction | Q15475+O00167 | AlphaScreen GST-Six1/His-Eya2 binding, biochemical; active compounds read low; control for the full effect not named in the record | activity change, % (concentration not given with the values) | 0.56% of 360,000 active | AID 651725; in the data active = activity change below about -65%; inconclusive = about -30% to -65%; inactive = above about -30%; note: % is set by controls: 0 for no effect and ±100 for the full control effect
#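 AlphaScreen with GST-Six1 and His-Eya2 (5X mix: 250 nM and 500 nM), glutathione donor and nickel acceptor beads; buffer 50 mM Tris pH 8.0, 300 mM NaCl, 1 mM TCEP; 1 h at 37 C in the dark.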
# gsp ag = agonists of gsp mutant (McCune-Albright syndrome); gsp mutant cells, cAMP HTRF, 30 min; control for the full effect not named in the record; Potency, µM (titrated, usually from 76.9 µM), without a hit: at the top dose activation (cAMP increase), hits mostly activators; 0.13% of 340,000 active; AID 624287; active = well fitted activation curve with a large enough effect; inconclusive = small, poorly fitted or top-dose-only effect, or another doubt; inactive = no such curve, though single readings can be large or run the other way; cell line not stated here;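 note: phosphodiesterase inhibitor Ro 20-1724 added with compounds to block cAMP breakdown; potency is the fitted concentration of half-maximal effect; nearly all actives have a fitted effect of over 60% in size; about a fifth of the inactives were tested at one dose only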
#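 Cells in DMEM/10% FBS with G418 were pretreated with compounds in DMSO plus […] (300 uM stock) for 30 min at 37C. cAMP was measured by HTRF (cAMP-d2 plus anti-cAMP antibody-K) after 30 min at room temperature.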
# Numbers without * were called inactive; ? = inconclusive; . = not tested or not shown; [ ] = dose if it differs, or a comment.
SMILES,D2 agonist,D2 potentiator,gsp antagonist,CtBP-E1A blk,Six1-Eya2 blk,gsp ag
Cc1ccc(S(=O)(=O)NCc2ccc(/C=C(/C#N)C(=O)NCc3ccccc3)o2)cc1,-4.1,-2,11%,3,6,14%
Cc1ccsc1C(=O)N1CCC1(C)C(=O)NCc1cccc2ccccc12 (configuration not stated),1.2,-11,.,-3,-3,.
Cn1c(=O)c2c(nc(CN3CCc4ccccc4C3)n2Cc2ccccc2F)n(C)c1=O,-3.2,-8,5%,-7,-1,?
COc1ccc(Cl)c(-c2cc(C(=O)Nc3ccc(C)c(NS(C)(=O)=O)c3)[nH]n2)c1,5.4,-19,.,1,-9,.
CCCCNc1c2c(nc3c(-c4ccccc4)c(C)nn13)CCC2,-2.3,-12,-14%,1,-8,-29%
O=C(O)c1ccc(-c2ncc[nH]2)cc1,-0.5,-4,5%,0,6,-2%[15.4 µM]
Cc1n[nH]c(C)c1S(=O)(=O)N1CCCC(C(=O)N2CCc3ccccc32)C1 (configuration not stated),-0.3,0,-11%,-1,-2,21%
CC(C)Cc1nnc(NC(=O)Cc2ccc([N+](=O)[O-])cc2)s1,7.0,8,13%,-1,10,6%[15.4 µM]
CN(CC(=O)NCC(c1ccco1)N1CCCCC1)S(=O)(=O)c1ccc(Cl)cc1 (configuration not stated),-0.4,-28,-14%,-2,-12,28%
O=S(=O)(Nn1cnnc1)c1ccccc1Cl,-1.0,8,8%,0,16,-45%[inhibitor]
O=C(NCc1cccnc1)C1CCN(S(=O)(=O)c2cc(Cl)ccc2Cl)CC1,7.7,1,1%,-6,-17,6%
O=C(COc1ccc2ccccc2c1)Nc1ccc(Cc2ccncc2)cc1,0.4,-2,?,-1,-6,14%
COc1ccc(CN2CCN(c3nc4ccccc4s3)CC2)cc1,-4.2,-3,4%,-6,-13,12%[15.4 µM]
CC(C)(C)c1ccccc1NC(=S)NC1CCCCC1,-4.3,-12,9%,-6,-1,-3%[15.4 µM]
CN(CC(=O)Nc1ccc(Cl)cc1)C(=O)Cc1c(F)cccc1Cl,0.3,-5,1%,5,-2,25%
CCCn1c(SCC(=O)NCc2ccccc2)nnc1-c1ccncc1,-2.3,-15,-15%,4,-1,-49%[inhibitor]
Cc1ccc(S(=O)(=O)Cc2ccc(C(=O)N3CCN(c4cccc(C)c4C)CC3)o2)cc1,1.0,1,2%,1,-13,-5%
O=C(NCc1ccccc1)C(c1cccnc1)N(Cc1ccco1)C(=O)c1ccccn1 (configuration not stated),-3.7,-11,-12%,3,-5,2%
Cc1nnc(SCC(=O)N(C)c2ccccc2)n1Cc1ccccc1,-5.8,-9,-3%,8,-3,6%
Cc1cc(NC(=O)c2ccc3sc([C@@H]4O[C@H](CO)[C@H](O)[C@H](O)[C@H]4O)nc3c2)n(C)n1,-6.1,-9,.,7,8,.
COc1cc(/C=N/Nc2nc3ccccc3[nH]2)ccc1O,11,?,-18%,-1,?,-7%
CCCC[C@@H]1CNC(=S)N1CCc1cccc(F)c1,0.5,-7,-5%,2,-1,3%
COc1cccc(CNC(C)C(=O)Nc2ccc(S(=O)(=O)N3CCCC3)cc2)c1 (configuration not stated),-1.8,1,-13%,2,-3,26%
CC1=NOC(=O)/C1=C/c1ccc(O)c(Br)c1,-2.5,2,-4%,7,8,16%
Cc1scc(C(=O)NNC(=O)CCC(=O)O)c1C,4.4,-7,9%,.,16,-3%[15.4 µM]
COc1ccc(-c2ccc3c(c2)C2CC3CCN2C(=O)OCc2ccccc2)cc1 (configuration not stated),-0.6,-1,-17%,5,10,.
CC(C)NC(=O)N1c2ccccc2Sc2ccccc21,-2.5,-9,9%,8,4,-3%[15.4 µM]
Cc1[nH]c2ccccc2c1Cc1n[nH]c(=S)n1C,-0.4,-9,5%,-12,0,-3%
COc1ccc(CCNC2CC(=O)N(CCc3ccccc3)C2=O)cc1OC (configuration not stated),-2.0,-18,6%,11,5,-14%
O=C(Cc1cccs1)NCCN1CCOCC1,-5.1,-18,12%,-1,1,-55%[inhibitor]
CC(C1CC1)N(Cc1ccccc1)C(=S)Nc1cccc(C(F)(F)F)c1 (configuration not stated),-1.0,-7,-5%,10,3,-12%[15.4 µM]
COC(=O)c1ccccc1NC(=O)CSc1ncn[nH]1,-2.3,-5,-7%,3,7,6%
COc1ccc(CSc2nnc(C)n2N)cc1,0.3,-23,5%,4,9,26%
c1ccc(CSc2ncnc3c2cnn3Cc2ccccc2)cc1,-3.1,-4,-4%,19,36,-8%
CCOC(=O)N1CCN(S(=O)(=O)N2CCCC(C(=O)NCCc3ccc(OCC)c(OCC)c3)C2)CC1 (configuration not stated),0.7,0,6%,7,1,?
CC(=O)N1CCN(Cc2nc3scc(-c4ccccc4)c3c(=O)[nH]2)CC1,-3.6,-4,-6%,0,2,14%[15.4 µM]
CCOC(=O)C1CCN(C(=O)C(=O)c2cn(CC(=O)N3CCCCCC3)c3ccccc23)CC1,0.7,-7,-15%,-1,-1,10%
O=C1CCCC/C1=C\Nc1ccc(S(=O)(=O)Nc2cnc3ccccc3n2)cc1,-2.4,-4,-14%,-4,1,-61%[inhibitor]
C[C@H]1CN([C@@H](C)CO)C(=O)c2cc(Br)cnc2O[C@@H]1CN(C)C(=O)Nc1ccc(C(F)(F)F)cc1,0.7,1,.,4,4,-34%[inhibitor]
COCCN(C(=O)COC(=O)CCC1CCCC1)c1c(N)n(Cc2ccccc2)c(=O)[nH]c1=O,-1.8,-4,12%,-3,6,-3%[15.4 µM]
OCC1(Cc2ccccc2C(F)(F)F)CCN(Cc2ccncc2)CC1,-1.6,-9,4%,6,-3,-14%[15.4 µM]
COc1cc(CN2CCNC(=O)C2CC(=O)NC2CCCC2)cc(OC)c1 (configuration not stated),-0.6,-1,3%,-2,5,0%
C/C(CC(=O)Nc1ccc(N(C)C)cc1)=N\NC(=O)C(=O)NCc1ccccc1,1.4,-1,-14%,-6,-16,?
COC1CCC2(C)C(=CCC3C4CC(O)CC4(C)CCC32)C1 (configuration not stated),-1.4,-12,-7%,21,-1,-17%
O=C(CCSc1ccc(Cl)cc1)NC1CCCCC1,-3.6,-4,3%,12,3,7%
COc1ccc(C(=O)COC(=O)c2cc(C)no2)c(OC)c1,-7.9,-3,0%,-1,0,-38%[inhibitor]
CCOc1ccccc1CSc1nc2ccccc2[nH]1,-1.8,-5,-19%,6,2,1%[15.4 µM]
c1ccc2nc(-c3nccs3)ccc2c1,-2.7,-3,13%,6,0,-1%
Cc1cccc(Cn2c(N3CCN(C)CC3)nc3c2c(=O)[nH]c(=O)n3C)c1,0.4,-15,-7%,6,7,18%[15.4 µM]
CN1C(=O)SC(Nc2ccccc2C(=O)O)C1=O (configuration not stated),-4.8,-12,4%,4,4,23%

# Taken from above.
# Under gsp ag, OCC1(Cc2ccccc2C(F)(F)F)CCN(Cc2ccncc2)CC1 shows -14%[15.4 µM]
# Under D2 potentiator, c1ccc2nc(-c3nccs3)ccc2c1 shows -3

# Following part:
SMILES,D2 agonist,D2 potentiator,gsp antagonist,CtBP-E1A blk,Six1-Eya2 blk,gsp ag
COc1cc(C(=O)Nc2nnc(SCC(=O)NCC3CCCO3)s2)cc(OC)c1OC (configuration not stated),-2.6,14,-16%,1,-3,?
Cc1ccc2oc(=O)n(CCCOc3ccccc3)c2c1,-4.3,-4,-3%,19,18,-3%
Cc1ccc(/C=N\Nc2cn[nH]c(=O)c2Cl)cc1,-3.4,4,4%,-10,-6,4%
Cc1cc(=O)[nH]c2c3ccccc3nn12,1.8,-8,-1%,5,8,-35%[inhibitor]
Cc1ccc(OCCNC(=O)c2ccc(C)cc2)cc1,-3.5,-21,1%,21,-4,-16%
Cc1ccc2cccc(OC(=O)/C=C\c3ccccc3)c2n1,-4.3,-2,8%,-7,2,-23%
COCCNC(=O)c1ccc2c(=O)n(Cc3ccco3)c(SCC(=O)NC3CCCC3)nc2c1,2.5,12,-3%,4,6,?
Cc1ccc(S(N)(=O)=O)cc1NC(=O)C(c1ccccc1)c1ccccc1,-6.4,-1,-1%,2,-1,0%
CN1C(=O)c2ccccc2OC1(C)Cc1ccccc1 (configuration not stated),-1.1,-10,6%,10,5,3%
COCC(C)NC(=O)c1ccc(N(C)C)cc1 (configuration not stated),1.8,-7,2%,-4,1,33%
CN(C)S(=O)(=O)Oc1ccsc1C(=O)Nc1ccc(Cl)c(Cl)c1,-5.1,-6,?,3,2,-41%[inhibitor]
CC(C)(C)c1cc(CCC(=O)Nc2ccncc2)cc(C(C)(C)C)c1O,5.5,17,-15%,3,-1,-55%[inhibitor]
Cc1ccc(C)c(S(=O)(=O)NC(C)C(=O)NCc2ccccn2)c1 (configuration not stated),-2.0,-6,3%,1,0,-2%[15.4 µM]
Cc1ccc(CN(C(=O)c2c(F)cccc2F)C2CC(C)(C)NC(C)(C)C2)o1,-0.8,0,-1%,-2,-3,-27%
Cc1cc(C)n(C(=O)CCCCCC(=O)n2nc(C)cc2C)n1,-1.6,-25,12%,8,4,-3%
Cc1c(C(=O)NN2CCN(C)CC2)cccc1[N+](=O)[O-],0.9,0,6%,3,9,-9%
CC(=O)C[C@H](O)CC(=O)[C@@H]1OC(=O)[C@H](C)C/C=C\Cc2ccccc21,-3.0,.,-4%,2,-1,.
CCn1c(CNC(=O)c2cccs2)nnc1SCC(=O)NCCc1ccccc1,-1.3,-3,4%,8,2,-3%
Cc1ccc(S(=O)(=O)N(C)C)cc1NC(=O)c1cccnc1Oc1ccccc1,-4.8,-4,11%,.,0,1%
Cc1nc(C)c2c(c1C(F)(F)F)-c1ccccc1C2(F)F,-3.3,-6,13%,14,8,-38%[inhibitor]
CCCN(C(=O)CSCC(=O)Nc1cccc(C)c1)c1c(N)n(Cc2ccccc2)c(=O)[nH]c1=O,1.7,-15,-5%,5,-1,-12%
CCCCN(C(=O)c1ccc(N(C)S(=O)(=O)c2ccc(C)cc2)cc1)c1c(N)n(CC(C)C)c(=O)[nH]c1=O,0.7,-4,16%,3,0,?
Cn1c(=O)oc2cc(S(=O)(=O)NCCC(=O)NC3CCCC3)ccc21,-2.8,-6,7%,-2,0,25%
NNC(=O)[C@H](Cc1ccccc1)NC(=O)Nc1ccc2c(c1)OCCO2,-1.8,-4,3%,-3,18,-17%
O=C(NCc1cccs1)C1Cc2c(-c3ccc(Cl)cc3)ccnc2O1 (configuration not stated),-2.7,-15,.,-1,-6,.
CC(C)OC(=O)c1ccc(NC(=O)c2cccc(-n3cnnn3)c2)cc1,-3.1,-4,-12%,.,2,-36%[inhibitor]
O=C(NC(=S)NCc1ccccc1)c1ccc(Br)cc1,-3.3,-4,-9%,2,12,-9%[15.4 µM]
Cc1cc(OCC(=O)Nc2ccccc2N2CCCCC2)ccc1C(C)C,-5.9,7,-6%,-3,7,-2%

# Screening results deposited in PubChem by National Center for Advancing Translational Sciences (NCATS).
